Screening results from PubChem.
MT1-MMP act inh: blocks activation of human MT1-MMP. AID 651647. P50281. HT1080 RFP-PRO-GFP cells, GFP/RFP ratio fluorescence, overnight; percent of plate control window, DMSO zero. 0.061% of 360,000 active. GFP/RFP ratio change, % at 20 µM;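 active means GFP/RFP ratio change of at least 30% with cell ATP level not reduced by more than half and red fluorescence within 50% of control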; further: strong numbers were not always called active
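Assay system: HT1080 RFP-PRO-GFP cells | Dosing: 20 µM single dose, 1% DMSO | Incubation: Cells overnight before dosing, compound overnight, 37 °C, 5% CO2 | Evaluation: GFP/RFP fluorescence ratio | Control set: DMSO-only wells and HT1080 RFP-L50D-GFP cell wells as references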
Env fusion inh: inhibitors of HIV Env-mediated cell fusion | HeLa-JRFL Env/CEM21 cell fusion, luciferase | inhibition, % at 12.3 µM | 1.1% of 360,000 active;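 active means mean replicate inhibition score of at least 50 and every replicate individually at or above 50; inconclusive means only one of the two criteria met; inactive means mean below 50 and not all replicates reaching 50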;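 further: 0% = plate neutral controls and 100% = maraviroc near 300 nM; one replicate is shown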
MT1-MMP act inh RFP: recorded beside MT1-MMP act inh, whose call it bears; RFP signal change, %; measured here: RFP expression control read;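 0 = vehicle wells; hits needed this value within 50% of zero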
The depositor's hits bear a star; i = inactive; ? = inconclusive.

SMILES	MT1-MMP act inh	MT1-MMP act inh RFP	Env fusion inh
O=C1Nc2ccccc2C(=O)N(c2ccc3c(c2)OCCO3)C1C(=O)NC1CC1 (stereo not given)	2	7	9
CC(C)=CCC[C@H](C)C[C@@H]1Cc2[nH]c(=S)[nH]c(=O)c2[C@@H](c2ccc(F)cc2)O1	0	-7	0
CCOC(=O)[C@]12CCCC=C1N(CCC1=CCCCC1)C(=O)[C@H](CC(=O)NCc1ccc(C)o1)C2	18	-4	23
O=C(CSCC(=O)NN=Cc1ccccc1O)NN=Cc1ccccc1O	7	0	-17
O=C(O)C1CCCN1C(=O)C1CCN(S(=O)(=O)c2cccc(C(F)(F)F)c2)CC1 (stereo not given)	-3	2	-9
COc1ccc(-c2oc3c(c2C(=O)OCCCO)C(OCCO)CCC3)cc1 (stereo not given)	4	2	-26
O=[N+]([O-])c1ccc2c(c1)C(=NO)c1cc(F)ccc1-2	0	0	-47
CN(CC(=O)Nc1ccc(F)c(F)c1F)C(=O)Cn1cnc2c1c(=O)n(C)c(=O)n2C	-2	6	-4
N#CCSc1ccccc1NC(=O)COC(=O)Cc1c[nH]c2ccccc12	-25	8	1
COc1ccc(NC(=O)C2(C)CCN2CCOc2ccccc2)cc1OC (stereo not given)	9	2	0
O=C1C=C(NCCc2cc(Br)c(O)c(Br)c2)C(=O)c2ncccc21	-9	-19	-2
COc1cccc(C=Nc2cc(C(C)C)c(O)cc2C)c1O	6	-4	19
CC(C)C[C@@H]1Cc2[nH]c(=S)[nH]c(=O)c2[C@H](CCc2ccccc2)O1	0	-1	9
CCCCN1C(=O)C(CC(=O)NCCCN(C)C)CC(C(=O)N2CCCCCC2)=C1C (stereo not given)	8	5	5
Cn1cnc([N+](=O)[O-])c1Sc1nc(N)nc2c1ncn2C1CC(O)C(CO)O1 (stereo not given)	14	0	?
CCOC(=O)[C@]12CCCC=C1N(CCC1=CCCCC1)C(=O)[C@H](CC(=O)NCC1CCCCC1)C2	-10	-16	5
CCc1ccccc1Oc1nc2cc(-c3cccc(OC)c3)sc2c(=O)n1C	3	5	33
CCCc1ccc(C(O)c2ncc(-c3ccccc3F)[nH]2)cc1 (stereo not given)	-3	-2	-23
CCCCNC(=O)c1nc(-c2cc3ccccc3[nH]2)oc1-c1cccc(C(F)(F)F)c1	4	-6	29
Cc1ccc(C)c(NC(=O)CN(C)C(C)C(=O)N2CC(C)CC(C)C2)c1 (stereo not given)	3	-1	14
CC(Sc1nnc(Cc2cccs2)n1C1CC1)C(=O)NC1CCS(=O)(=O)C1 (stereo not given)	-2	-1	4
O=C1[C@@H]2[C@@H](CN3CN(c4ccccc4)N=C(c4ccccc4)[C@@]23c2ccccc2)C(=O)N1c1ccccc1	-2	1	18
Cc1ccc(C(=O)NCCN2CCC(n3c(=O)[nH]c4ccccc43)CC2)cc1	2	0	-16
Nc1[nH]c(C(=O)c2ccccc2)c(-c2ccccc2Cl)c1C(=O)c1ccccc1	2	-8	22

Sorted by SMILES length (high to low): 3 of the compounds above
SMILES	MT1-MMP act inh	MT1-MMP act inh RFP	Env fusion inh
CC(C)C[C@@H]1Cc2[nH]c(=S)[nH]c(=O)c2[C@H](CCc2ccccc2)O1	0	-1	9
CC(Sc1nnc(Cc2cccs2)n1C1CC1)C(=O)NC1CCS(=O)(=O)C1 (stereo not given)	-2	-1	4
CCCc1ccc(C(O)c2ncc(-c3ccccc3F)[nH]2)cc1 (stereo not given)	-3	-2	-23

Continued.
SMILES	MT1-MMP act inh	MT1-MMP act inh RFP	Env fusion inh
COc1ccc(-c2cc3nc(NCc4ccc(NC(C)=O)cc4)n(C)c(=O)c3s2)cc1OC	2	-1	?
CCCCn1nnnc1C(c1ccccc1)N1CCN(c2ncccn2)CC1 (stereo not given)	-4	-1	-7
COC(=O)[C@]12CCCCC=C1N(Cc1ccc3c(c1)OCO3)C(=O)[C@H](CC(=O)NCc1cccc3ccccc13)C2	3	-5	-9
COC(=O)c1cn(CC(C)n2c(=O)c3ccccc3n2Cc2cc(C(C)C)no2)nn1 (stereo not given)	8	7	-13
Cc1nc(-c2ccccc2)sc1C(=O)NS(=O)(=O)c1ccc(CN2CCN(c3ccccc3)CC2)cc1	5	2	-5
CCNC(=O)C1(C)CCCN(Cc2ccc3ccccc3c2Br)C1 (stereo not given)	-4	-7	27
C[C@@H]1COc2cccc(N3CCC[C@@H]3CO)c2S(=O)(=O)N1	4	4	10
CC(C)(C)NC(=O)C1C(c2ccc(C(F)(F)F)cc2)=Nc2ccccc2N1C(=O)c1cccc(C(F)(F)F)c1 (stereo not given)	-7	-15	67*
Nc1sccc1C(=O)N1CCN(c2ccccc2)CC1	-2	5	-1
CN1CCC(N(C)C(=O)/C(C#N)=C\c2ccc(OC(F)F)cc2)CC1	4	1	5
O=C1NC[C@H](CCCCN2CCN(CCc3ccccc3)C(=O)C2=O)N(Cc2ccccc2)C1=O	-1	2	-6
Cc1cccc(C)c1NC(=O)C1(C)CSCC(=O)N1C1CCN(Cc2ccccc2)CC1 (stereo not given)	-3	0	9
CC(C)C[C@@H](CN1CCC[C@@H]1CN1C(=O)C(=O)NC[C@@H]1Cc1ccccc1)N1C[C@H](Cc2ccccc2)N(CC2CCCCC2)C(=O)C1=O	-5	-9	-46
COc1ccccc1CCn1cnc(-c2ccc(Br)cc2)c1C(C)C	-6	-18	10
CC(C)(C)NC(=O)C(c1ccc(C(F)(F)F)cc1)n1c(=O)c(-c2ccccc2)nc2ccccc21 (stereo not given)	-27	-28	44
Cc1c(Cl)cccc1NC(=O)CNC(=O)CCCc1nc2ccccc2c(=O)[nH]1	0	-1	-30
O=C(NCc1ccccc1)C(c1cc2ccccc2o1)n1c(=O)c(-c2cc3ccccc3[nH]2)nc2ccccc21 (stereo not given)	-4	1	-24
O=c1[nH]c(=O)n(C2OC(CO)C(O)C2O)c2c1CCCC2 (stereo not given)	-2	5	7
COc1ccc(NC(=O)N(C)[C@H]2C[C@H]3c4[nH]c5ccccc5c4CCN3C(=O)[C@H]2[C@H](C)O)cc1	2	1	i
COC1=CC(=O)OC(c2cccc(C(F)(F)F)c2)C1 (stereo not given)	3	5	-4
Cc1ccc(S(=O)(=O)N2[C@H](CC(=O)c3ccc(Cl)c(Cl)c3)OC[C@@H]2C)cc1	5	-16	18
CSCCC(C(=O)Nc1c(C)cccc1C)n1c(-c2cnc(C)cn2)nc2ccccc21 (stereo not given)	1	-2	-8
O=C(O)CC1CCC1CC(=O)O (stereo not given)	-4	4	-16
COc1ccc(CN2C(=O)c3ccccc3C2(C)c2nc3ccccc3[nH]2)cc1 (stereo not given)	0	-1	-21
Cc1cccc(C)c1NC(=O)C1c2ccccc2OCC(=O)N1CC(F)(F)F (stereo not given)	1	5	-8
CCOC(=O)C1CCCN(C(=O)c2cncc(Br)c2)CC1 (stereo not given)	-2	0	2
O=C(Nc1ccc(F)cc1)C(c1ccnc2ccccc12)N1CCN(CC(=O)N2CCCC2)CC1 (stereo not given)	0	0	-4
Cc1ccc(S(=O)(=O)Nc2ccc3ncccc3c2[N+](=O)[O-])cc1	3	-1	-7
COCOCCn1cc(CN2CCS(=O)(=O)N(Cc3ccc(-c4ccncc4)cc3)C(C)C2=O)nn1 (stereo not given)	4	5	-7
CCCCC1Cc2[nH][nH]c(=O)c2C(c2ccc(Cl)cc2)O1 (stereo not given)	7	7	7
O=C(O)C(SC(C(=O)O)c1ccccc1)c1ccccc1 (stereo not given)	-1	5	10
Cc1ccc(-c2c(N)nc3ncccn23)cc1	-3	4	-2
CCOc1ccc(NS(=O)(=O)c2ccc(C(=O)NCC(c3ccco3)N3CCCCC3)cc2)cc1 (stereo not given)	1	1	7
COC(=O)[C@@]1(Cc2ccc(F)cc2)[C@H]2c3cc(C(=O)N(C)C)n(C)c3C[C@H]2CN1C(=O)c1ccccc1	1	1	-9
CC1(C(=O)NS(=O)(=O)Cc2cccc(Cl)c2)CCN1C(=O)Cc1cccs1 (stereo not given)	3	8	-15
O=C(Nc1ccc(F)cc1)C(c1cccc(F)c1)N1CCN(c2cccc(C(F)(F)F)n2)CC1 (stereo not given)	-16	-14	50

Arranged by SMILES length (high to low): some entries from above.
SMILES	MT1-MMP act inh	MT1-MMP act inh RFP	Env fusion inh
CC(C)C[C@@H](CN1CCC[C@@H]1CN1C(=O)C(=O)NC[C@@H]1Cc1ccccc1)N1C[C@H](Cc2ccccc2)N(CC2CCCCC2)C(=O)C1=O	-5	-9	-46
COC(=O)[C@]12CCCCC=C1N(Cc1ccc3c(c1)OCO3)C(=O)[C@H](CC(=O)NCc1cccc3ccccc13)C2	3	-5	-9
CC(C)=CCC[C@H](C)C[C@@H]1Cc2[nH]c(=S)[nH]c(=O)c2[C@@H](c2ccc(F)cc2)O1	0	-7	0
CCOC(=O)[C@]12CCCC=C1N(CCC1=CCCCC1)C(=O)[C@H](CC(=O)NCc1ccc(C)o1)C2	18	-4	23
Cc1nc(-c2ccccc2)sc1C(=O)NS(=O)(=O)c1ccc(CN2CCN(c3ccccc3)CC2)cc1	5	2	-5
Cc1ccc(S(=O)(=O)N2[C@H](CC(=O)c3ccc(Cl)c(Cl)c3)OC[C@@H]2C)cc1	5	-16	18
O=C1NC[C@H](CCCCN2CCN(CCc3ccccc3)C(=O)C2=O)N(Cc2ccccc2)C1=O	-1	2	-6
CN(CC(=O)Nc1ccc(F)c(F)c1F)C(=O)Cn1cnc2c1c(=O)n(C)c(=O)n2C	-2	6	-4
O=C(O)C1CCCN1C(=O)C1CCN(S(=O)(=O)c2cccc(C(F)(F)F)c2)CC1 (stereo not given)	-3	2	-9
COC(=O)c1cn(CC(C)n2c(=O)c3ccccc3n2Cc2cc(C(C)C)no2)nn1 (stereo not given)	8	7	-13
Cc1cccc(C)c1NC(=O)C1(C)CSCC(=O)N1C1CCN(Cc2ccccc2)CC1 (stereo not given)	-3	0	9
COc1ccc(CN2C(=O)c3ccccc3C2(C)c2nc3ccccc3[nH]2)cc1 (stereo not given)	0	-1	-21
Cc1cccc(C)c1NC(=O)C1c2ccccc2OCC(=O)N1CC(F)(F)F (stereo not given)	1	5	-8
CCc1ccccc1Oc1nc2cc(-c3cccc(OC)c3)sc2c(=O)n1C	3	5	33
N#CCSc1ccccc1NC(=O)COC(=O)Cc1c[nH]c2ccccc12	-25	8	1
O=[N+]([O-])c1ccc2c(c1)C(=NO)c1cc(F)ccc1-2	0	0	-47
CCCc1ccc(C(O)c2ncc(-c3ccccc3F)[nH]2)cc1 (stereo not given)	-3	-2	-23
Nc1sccc1C(=O)N1CCN(c2ccccc2)CC1	-2	5	-1
Cc1ccc(-c2c(N)nc3ncccn23)cc1	-3	4	-2

Later entries:
SMILES	MT1-MMP act inh	MT1-MMP act inh RFP	Env fusion inh
CC(C)[C@@H]1Cc2[nH]c(=S)[nH]c(=O)c2[C@H](CCc2ccccc2)O1	-3	4	-15
O=C(NCCCn1ccnc1)c1sc2cc([N+](=O)[O-])ccc2c1Cl	6	-6	-11
CC(C)(C)C(c1nc2ccccc2[nH]1)n1c(-c2cc(Cl)cc(Cl)c2)nc2ccccc21 (stereo not given)	-10	-16	-11
Cc1ccc(S(=O)(=O)CS(=O)(=O)c2ccc(C)cc2)cc1	4	5	-3
CC(C)=CCCC(C)c1cc(C(=O)NCCc2ccc(O)cc2)c(N)s1 (stereo not given)	-17	-16	-6
CCC(C)C(NC(=O)C(Cc1ccc(O)cc1)NC(=O)OCc1ccccc1)C(=O)OC (stereo not given)	1	9	20
Cc1nc2cc(Cc3ccccc3)ccc2o1	5	3	-20
CC(=O)Nc1ccc(NC(=O)c2ccc(-c3ccccc3Cl)o2)cc1	5	-1	-13
Cc1cc(NC(=O)NC(=O)c2ccccc2NC(=O)CN(C)C)ccc1Oc1ncc(Br)cn1	11	-6	-65
O=C(O)Cc1cccc2c(=O)cc(-c3ccccc3)oc12	0	5	3
COC(=O)c1cc(=O)nc(NN=Cc2ccco2)s1	3	3	9
O=C1NC[C@@H](CCCCN2CCN(CCc3ccccc3)C(=O)C2=O)N(CC2CCCCC2)C1=O	1	8	3
CCc1nc2nc(C)cc(C)n2c1Nc1ccc(OC)cc1	7	2	8
COc1cccc(CCC2C(=O)CCCC2=O)c1	6	5	-25
CCCCCC(=O)N1C[C@@H](O)[C@H](n2cc(C3CC3)nn2)C[C@@H]1c1ccccc1	3	2	23

Not all compounds are listed, so the mix of outcomes need not match the whole.
